# Screens as filed in PubChem.
# Vaccinia Venus: inhibitors of vaccinia virus (Venus reporter) | Vaccinia virus Venus reporter expression, fluorescence | Potency, µM (titrated, usually from 36.5 µM), inactives show at the highest dose activity change, negative = inhibition, hits mostly inhibitors | 330,000 tested, 0.46% active; active means well fitted inhibition curve with a large enough effect; inconclusive means small, poorly fitted or top-dose-only effect; inactive means no such curve, though single readings can be large or run the other way; tested in A549 cells; note: nearly all actives have a fitted effect of over 30% in size; inactives centre near -10
# VACV mCherry inh: vaccinia inhibition (mCherry reporter); Vaccinia virus mCherry reporter infection, fluorescence; about a quarter of the inactives have no number; Potency, µM (doses to about 36.5 µM), inactives show at the highest dose activity change, negative = inhibition, hits mostly inhibitors; 310,000 tested, 0.63% active; AID 720579; active = well fitted inhibition curve with a large enough effect; inconclusive = small, poorly fitted or top-dose-only effect; inactive = no such curve, though single readings can be large or run the other way; tested in A549 cells; note: nearly all actives have a fitted effect of over 35% in size; inactives centre near -10
# Active calls of the source: *; i = inactive; u = inconclusive; x = not tested or not shown; & = joins results of further samples; [ ] = another dose, or the depositor's remark. % is set by controls: 0 for no effect and ±100 for the full control effect; potency is the fitted concentration of half-maximal effect.
SMILES,Vaccinia Venus,VACV mCherry inh
COc1cccc(-c2nc(CS(=O)(=O)CC(=O)NCc3ccccc3)c(C)o2)c1,-3.7%,-19.0%
CCN(CC)c1c([N+](=O)[O-])c(=O)sc2ccccc12,-11.0%,-1.8%
OCCN1CCN(c2nccn3ccnc23)CC1,4.1%,-6.7%
CCc1ccc(N2CC(C(=O)OCC(=O)NNC(=O)c3ccccc3)CC2=O)cc1 (stereo not given),-4.9%,-5.3%
N#C/C=C(/N)c1ccc(Br)cc1,-20.4%,x
CC(C)(C)C(=O)NNC(=O)c1cc(C(C)(C)C)nn1Cc1ccccc1,-1.8%,i
NC(=O)c1nsc(C(=O)N(CC(=O)NC2CCCCC2)c2cccc(F)c2)c1N,-17.0%,i
CCSc1nc(C2CC2)cc(-c2cccs2)c1C#N,-4.2%,-0.9%
CC(C)c1nc(CNC(=O)C2CCC(=O)N(Cc3ccc(Cl)cc3)C2)no1 (stereo not given),-20.3%,-1.9%
Cn1c2c(c(=O)n3ncnc13)CCCC2,2.0%,-12.5%
CN(C)c1ccc(CNC(=O)C2CCN(C(=O)c3ccc(-n4ccc5ccccc54)s3)CC2)cc1,-28.2%,-19.6%
O=C(CCC(=O)N(CC(=O)NC1CCCC1)Cc1ccc2c(c1)OCO2)Nc1ccccn1,-9.9%,x
CCN(CC)CCCN=C(C)c1c(O)n(C2CCCCC2)c(=O)[nH]c1=O,-11.8%,-16.4%
CCOC(=O)c1ccc(NS(=O)(=O)c2cnc[nH]2)cc1,-2.3%,-6.0%
CCCc1cc(NCCCn2ccnc2)n2nc(C)c(-c3ccccc3)c2n1,-21.7%,i
Cc1cc2cc(CNC(=O)Cc3ccc([N+](=O)[O-])cc3)ccc2n1C,-4.6%,-13.0%
Cc1cc(C)c2cc(C(c3nnnn3CC3CCCO3)N3CCN4CCCC4C3)c(=O)[nH]c2c1 (stereo not given),-8.8%,i
COc1ccc2c(c1OC)C(=O)N(c1ccc(C)cc1)C2=O,-10.1%,-18.5%
CC1(OC(=O)C2CCCC2)C(=O)C=C2C=C(c3ccsc3)N(Cc3ccc4c(c3)OCO4)C=C2C1=O (stereo not given),-9.8%,-1.2%
O=C(NCc1cccs1)c1ccc(CSc2nc3ccncc3n2Cc2ccccc2F)cc1,-17.9%,u
Cc1cccc(CSc2nc3cccnc3n2Cc2ccc(C(=O)NCc3ccco3)cc2)c1,-6.5%,-12.4%
CC(=O)CCN1CCOCC1,-13.6%,-10.6%
COc1ccc(-c2nnc(NC(=O)CSc3ccc(C)cc3)s2)cc1OC,-4.2%,-13.6%
CNC(=O)C(=O)N/N=C/c1ccc(Br)cc1,-6.6%,-13.6%
CC(=O)c1c(O)cc2c3c1OC(C)(C)C1CCC(C)(CC31)O2 (stereo not given),-14.4%,-13.1%
CCOC(=O)c1c(NC(=O)C(NCCN(C)C)c2ccccc2)sc2c1CCCC2 (stereo not given),-21.9%,u
CCOc1ccccc1Nc1ccc(C(=O)O)cc1[N+](=O)[O-],-6.2%,i
CC[C@@]1(O)CC(O)c2c(cc3c(c2O)C(=O)c2c(O)ccc(O)c2C3=O)C1C(=O)OC (stereo not given in full),14.2%,1.5%
CC(C)C(=O)N1CCCC1(C)C(=O)N(C)Cc1cccc2ccccc12 (stereo not given),-2.3%,43.5%[activator]
COC(=O)C1=C(c2ccccc2OCc2ccccc2)C[C@@H]2CC[C@H]1N2C(=O)NCc1ccc(N(C)C)cc1,u,-19.0%
COc1cccc(CNC(=O)CSc2nnc(C)c3c(C)n(-c4ccccc4)nc23)c1,-5.2%,-2.2%
CCc1ccccc1NC(=O)[C@@H](c1ccccc1)N1Cc2ccccc2C1=O,3.7%,-4.1%
CCSc1nc2ccccc2c(OCc2ccc(Cl)cc2)c1C(=O)OC,2.5%,-7.7%
CCCN1C(=O)c2cc(C(=O)Nc3ccccc3OC)ccc2C1Nc1ccccc1OC (stereo not given),-12.3%,i
OCC#Cc1ncc(C(F)(F)F)cc1Cl,-3.3%,i
Cc1cc(C)n(-c2ccc(C(=O)OCC(=O)NC(c3ccccc3)c3ccccc3)cc2)n1,-16.4%,-10.9%
COc1ccc(N2CCCn3c2nc2c3c(=O)n(CCc3ccccc3)c(=O)n2C)cc1,1.5%,-6.5%
CC(C(=O)O)N1C(=O)CSC1=S (stereo not given),311.1%[activator],251.3%[activator]
Cc1cccc(C)c1Nc1c(-c2ccsc2)nc2ncccn12,-13.6%,-9.8%
CC(C)(C)C(=O)NNC(=O)C1CC1(c1ccccc1)c1ccccc1 (stereo not given),1.7%,-17.7%

# 15 compounds out of the list, sorted by molecular weight, low to high.
SMILES,Vaccinia Venus,VACV mCherry inh
OCC#Cc1ncc(C(F)(F)F)cc1Cl,-3.3%,i
OCCN1CCN(c2nccn3ccnc23)CC1,4.1%,-6.7%
CCSc1nc(C2CC2)cc(-c2cccs2)c1C#N,-4.2%,-0.9%
COc1ccc2c(c1OC)C(=O)N(c1ccc(C)cc1)C2=O,-10.1%,-18.5%
Cc1cccc(C)c1Nc1c(-c2ccsc2)nc2ncccn12,-13.6%,-9.8%
CCCc1cc(NCCCn2ccnc2)n2nc(C)c(-c3ccccc3)c2n1,-21.7%,i
CCc1ccc(N2CC(C(=O)OCC(=O)NNC(=O)c3ccccc3)CC2=O)cc1 (stereo not given),-4.9%,-5.3%
CC[C@@]1(O)CC(O)c2c(cc3c(c2O)C(=O)c2c(O)ccc(O)c2C3=O)C1C(=O)OC (stereo not given in full),14.2%,1.5%
COc1ccc(N2CCCn3c2nc2c3c(=O)n(CCc3ccccc3)c(=O)n2C)cc1,1.5%,-6.5%
COc1cccc(CNC(=O)CSc2nnc(C)c3c(C)n(-c4ccccc4)nc23)c1,-5.2%,-2.2%
CCCN1C(=O)c2cc(C(=O)Nc3ccccc3OC)ccc2C1Nc1ccccc1OC (stereo not given),-12.3%,i
O=C(CCC(=O)N(CC(=O)NC1CCCC1)Cc1ccc2c(c1)OCO2)Nc1ccccn1,-9.9%,x
Cc1cc(C)c2cc(C(c3nnnn3CC3CCCO3)N3CCN4CCCC4C3)c(=O)[nH]c2c1 (stereo not given),-8.8%,i
Cc1cccc(CSc2nc3cccnc3n2Cc2ccc(C(=O)NCc3ccco3)cc2)c1,-6.5%,-12.4%
COC(=O)C1=C(c2ccccc2OCc2ccccc2)C[C@@H]2CC[C@H]1N2C(=O)NCc1ccc(N(C)C)cc1,u,-19.0%

# Additional structures.
SMILES,Vaccinia Venus,VACV mCherry inh
O=C1c2cc([N+](=O)[O-])cc3cc([N+](=O)[O-])cc(c23)C(=O)N1c1ccccn1,24.1%,44.4%[activator]
CCNC(=S)NC1CC2CCCC(C1)N2Cc1ccco1 (stereo not given),-19.0%,i
COc1ccc2c(C)c(CC(=O)NCCc3ccc(Cl)cc3)c(=O)oc2c1C,7.9%,3.4%
CC(C)C(NC(=O)OCc1ccccc1)C(=O)NCC(=O)OC(C)(C)C (stereo not given),-8.4%,x
CCC(=O)NCCSc1c[nH]c2ccccc12,-11.3%,x
CCCN(CCC)CCNC(=O)CS(=O)Cc1nc(-c2ccc(OC)c(OC)c2)oc1C (stereo not given),-7.7%,-5.1%
Cc1cc(C)cc(NC(=O)CSc2nnc(CNC(=O)c3ccco3)n2C)c1,-2.2%,-9.0%
COC(=O)c1cc2sccc2n1CC(=O)Nc1ccc(C)cc1C,-25.9%,u
Nc1ccc(C#Cc2ccc3sc4ccccc4c(=O)c3c2)cc1,-18.3%,-16.7%
COC(=O)c1ccccc1NC(=O)c1ccccc1SC,-10.3%,x
CCOC(=O)NC(NC(=S)Nc1ccc(OC)cc1)C(Cl)(Cl)Cl (stereo not given),-16.1%,-14.0%
OC1(c2ccc(F)cc2)CC2CCC(C1)N2Cc1nnnn1C1CCCCC1 (stereo not given),-3.3%,-8.4%
COc1cccc(N2C(=O)CC(N3CCc4ccccc43)C2=O)c1 (stereo not given),-2.9%,-15.0%
CCOc1cc2[nH]c(=O)n(CC3CCC(C(=O)NCCC(C)C)CC3)c(=O)c2cc1OCC (stereo not given),10.4%,i
COc1cccc(CN(C)C(=S)Nc2ccc(C)c(C)c2)c1,-9.1%,-13.9%
CCNC(=O)/C(=C\C=C\c1ccccc1)NC(=O)c1ccc(Br)o1,-5.2%,i
CCC(Sc1nc2ncccc2[nH]1)C(=O)NC1CCCC1 (stereo not given),-11.7%,-3.9%
O=C1NC(c2ccccc2)=NC1(NS(=O)(=O)c1ccc(Cl)cc1)C(F)(F)F (stereo not given),-2.7%,i
CCCCCCCCCCS(=O)(=O)N/N=C/c1ccccc1OC,-13.0%,-16.0%
COc1cc2cnc(-c3ccccc3F)cc2cc1OC,u,i
O=c1cc(/C=C/c2c(F)cccc2Cl)[nH]c2ccccc12,-16.9%,i
COc1ccc([C@H]2C=C3CN(C(=O)OC(C)(C)C)S(=O)(=O)[C@H]3C[C@H]2OC(=O)c2ccc(C(F)(F)F)cc2)cc1,-13.2%,-4.1%
Nc1nonc1C(=O)NCCNc1ccc([N+](=O)[O-])cn1,-1.4%,10.4%
COc1ccccc1-c1nnc(C2CCN(C(=O)c3ccc(Cl)cc3)CC2)o1,3.8%,-6.9%
c1ccc2cc(C3OCC4(CCCC4)CO3)ccc2c1,u,i
Cc1cc(C)cc(NC(=O)COc2cccc3c(=O)n(C)ccc23)c1,-9.6%,-5.8%
CC(C)(C)c1ccc(C(=O)Nc2ccc(CN3CCS(=O)(=O)CC3)cc2)cc1,-21.7%,-24.8%
CCCCn1c(=O)[nH]c(=O)c2c1nc(-c1ccccn1)n2CC,-8.4%,-4.0%
CN(C(=O)c1cccc(NC(=O)Cc2ccc(NC(=O)C3CCN(C(=O)C4CCCC4)CC3)cc2)c1)C1CCC1,-18.0%,-5.3%
CCn1c(C)c(C)c2cc(C(=O)NCCc3cc(OC)c(OC)c(OC)c3)ccc21,-15.9%,i
O=C(CSc1nnc(Nc2ccccc2)s1)NC1CCS(=O)(=O)C1 (stereo not given),3.3%,-1.1%
CCN1c2ccccc2N(C)C1(C)c1ccccc1 (stereo not given),27.0%,96.8%[activator]
O=C(CSc1ccsc1[N+](=O)[O-])NCc1ccco1,-9.9%,-2.9%
COC(=O)c1cccc(C23CC4(C2)[C@H](CN(C)[C@@H]4c2ccccc2)C3c2ccccc2)c1 (stereo not given in full),-11.9%,-14.7%
CCOC(=O)C[C@H]1c2ccccc2S(=O)(=O)N1c1ccccc1,-5.5%&-13.7%,-0.7%&-23.9%
COC(=O)C1=C(c2ccc(S(C)(=O)=O)cc2)C[C@@H]2CC[C@H]1N2C(=O)NC1CC1,-7.0%,-9.2%
Cc1sc(NC(=O)COc2ccccc2)c(C#N)c1-c1ccccc1,-11.7%,i
O=C(CN(Cc1ccccc1)S(=O)(=O)c1ccccc1)N/N=C/c1ccccc1C(=O)O,-10.3%,i
COc1ccc(CC(=O)NC(=S)NNC(=O)COc2c(C)cccc2C)cc1,-2.1%,-12.4%
O=C1NN=C(c2ccc(Cl)cc2)CC1c1cccc(Cl)c1 (stereo not given),u,x
CCOC(=O)N1CCC(NC(=O)Cn2cc3c(n2)CCC(C)C3)CC1 (stereo not given),-17.2%,x
COc1ccc(CN2CCNC(=O)C2CC(=O)N2CCc3ccccc3C2)c(OC)c1 (stereo not given),-3.9%,-0.5%
CCc1ccc(NC(=O)C(C)OC(=O)/C=C/c2cccc([N+](=O)[O-])c2)cc1 (stereo not given),-8.0%,-3.8%
CC(O/N=C\c1ccccc1O)C(=O)Nc1ccccc1C(=O)N1CCOCC1 (stereo not given),7.0%,-17.3%
CC1CN(C(=O)c2ccc(COc3ccccc3Br)o2)CC(C)O1 (stereo not given),-9.6%,-7.6%
Cc1cc(NC(=O)CCC(=O)N(Cc2ccco2)C(C(=O)NC2CCCCC2)c2cccs2)no1 (stereo not given),-10.6%,i
c1cc2c3c(cccc3c1)C(N1CCOCC1)=N2,2.4%,8.7%
O=[N+]([O-])c1ccc(N2CCCC2)c2ccncc12,-18.8%,-2.5%
COc1ccc(S(=O)(=O)N2CCOCC2)cc1NC(=O)CSc1ccccc1,-7.0%,-2.0%
CCc1ccc(CNC(=O)C2CCN(C(=O)c3ccc(-n4ccc5ccccc54)s3)CC2)cc1,-22.8%,-18.3%
# (listing goes on)
SMILES,Vaccinia Venus,VACV mCherry inh
COc1ccc(N(CC(=O)N/N=C/c2cccc3c2OCCO3)S(=O)(=O)c2ccc(NC(C)=O)cc2)cc1,-10.9%,x
Cc1ccsc1C(=O)OCC(=O)c1ccc[nH]1,-22.7%,-19.6%
O=C1NC(=O)/C(=C/c2ccccc2OCc2ccccc2)S1,-0.9%,-11.0%
O=C(NCc1cccnc1)c1ccc(S(=O)(=O)N2CCCCCC2)cc1,-13.6%,-2.3%
Cc1csc(-c2nc3ccccc3n2C(C(=O)Nc2c(C)cccc2C)C2CC2)c1 (stereo not given),-24.1%,-12.4%
Cc1cc(C(=O)CSc2ccc(F)cc2)cc(C)c1OC(=S)N(C)C,0.2%,x
COc1ccc(N2CC(NC(=O)/C=C\c3ccccc3)CC2=O)cc1 (stereo not given),-11.2%,-9.6%
COCc1c(C(=O)OCC(=O)c2ccc[nH]2)oc2ccccc12,5.4%,-8.2%
Cc1nc2ccc(C(=O)NCCCn3ccnc3)cn2c1N(C)C(=O)CCc1ccccc1,0.9%,31.9%[activator]
CC(C)(C)SCCNC(=O)COc1ccccc1,-8.4%,i
Cn1cnnc1Sc1ccc(/C=C(\CC(=O)O)c2nc3ccccc3s2)cc1[N+](=O)[O-],4.7%,-11.2%
CN(C)c1ccc(/C=N/NC(=O)c2nnn(-c3nonc3N)c2CN2CCCCCC2)cc1,-17.8%,i
COc1cc(OC)c(NC(=O)NCc2ccc3c(c2)CCN3C(=O)c2ccccc2)cc1Cl,u,u
CC(NC(=O)CN1C(=O)COc2ccc(Cl)cc21)c1ccccc1 (stereo not given),-9.8%,-17.2%
